A488 fluor: qHTS Assay for Spectroscopic Profiling in A488 Spectral Region. compound autofluorescence, A488 spectral region, dye equivalency; hits give high values. max dye equivalency, M. 0.1% of 59,000 active; active = above 10 nM dye equivalent; inconclusive = 1 to 10 nM; inactive = 1 nM or less; about half of its hits are not listed in these tables;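 also: highest value over a series up to 38 µM; compound alone in buffer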
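Spectroscopic profiling in the A488 region: compounds in pH 8.0 Tris (100 mM), 15 min RT, CCD imaging with 480 nm excitation and 540 nm emission; responses normalized against A488 dye standards.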
TSHR agonist: qHTS Assay for Agonists of the Thyroid Stimulating Hormone Receptor; AID 926, 2007; 0.48% of 73,000 active; Potency, µM (titrated, usually from 57.1 µM), without a hit: top-dose activation, hits mostly activators; Thyrotropin receptor (Homo sapiens), P16473; HEK293-CNG-TSHR cells (CNG channel as cAMP sensor), membrane potential dye, cAMP; active = well fitted activation curve of enough size with the parental cells flat; inconclusive = any curve in the parental cells; inactive = parental cells flat and receptor cells flat or falling; also: potency is read from the fitted curve at half-maximal effect; % of control where 0% means no effect; weak receptor curves with flat parental cells got no call and are not listed
Target sequence (P16473 whole entry, looked up): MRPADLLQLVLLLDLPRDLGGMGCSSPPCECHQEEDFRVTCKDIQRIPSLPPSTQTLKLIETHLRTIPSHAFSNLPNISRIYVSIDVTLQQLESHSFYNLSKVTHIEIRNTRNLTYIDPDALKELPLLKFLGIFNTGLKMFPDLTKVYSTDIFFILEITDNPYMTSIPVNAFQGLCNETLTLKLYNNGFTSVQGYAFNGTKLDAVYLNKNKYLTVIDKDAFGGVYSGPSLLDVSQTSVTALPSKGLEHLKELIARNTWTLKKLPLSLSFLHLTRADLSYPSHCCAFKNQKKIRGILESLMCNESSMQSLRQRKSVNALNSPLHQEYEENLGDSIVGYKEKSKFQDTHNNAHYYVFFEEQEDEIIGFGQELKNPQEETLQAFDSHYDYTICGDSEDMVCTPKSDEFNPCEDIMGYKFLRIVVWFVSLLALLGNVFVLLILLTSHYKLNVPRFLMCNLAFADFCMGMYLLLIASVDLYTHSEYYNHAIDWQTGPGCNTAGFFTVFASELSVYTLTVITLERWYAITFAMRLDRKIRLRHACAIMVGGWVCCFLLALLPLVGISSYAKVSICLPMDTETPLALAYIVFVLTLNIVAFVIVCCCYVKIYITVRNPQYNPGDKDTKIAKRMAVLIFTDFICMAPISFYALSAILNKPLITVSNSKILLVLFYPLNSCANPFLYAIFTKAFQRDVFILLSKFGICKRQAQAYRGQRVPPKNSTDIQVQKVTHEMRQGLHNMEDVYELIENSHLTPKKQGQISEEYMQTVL
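HEK 293 cells stably expressing TSHR and a cAMP-gated CNG channel; parental CNG-only cells as counterscreen. Cells preloaded 60 min with membrane potential dye plus 100 uM RO 20-1724, then compound 30 min; fluorescence read at 590 nm.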
AID923: qHTS Assay for Allosteric/Competitive Inhibitors of Caspase-1: Spectroscopic Profiling in AFC Spectral Region; compound fluorescence, AFC spectral region (405/520 nm); almost no hit is shown here; Potency, µM (doses to about 57.5 µM), inactives show at the highest dose fluorescence increase, usual class: activators; AID 923, 2007; 1.1% of 75,000 active; active = well fitted activation curve with a large enough effect; inconclusive = small, poorly fitted or top-dose-only effect;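 also: potency is read from the fitted curve at half-maximal effect; 0% is about no effect; scaled to a free AFC standard on each plate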
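Compound autofluorescence profiled at 405 nm ex/520 nm em during kinetic caspase 1 run (50 nM enzyme, 5 uM Ac-WEHD-AFC, HEPES pH 7.5, 10 mM DTT). Titration up to 57 uM; baseline from regression intercept, normalized to AFC standard curve.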
Resorufin autofl: qHTS Assay for Spectroscopic Profiling in Resorufin Spectral Region; max dye-equivalent concentration, M; Compound fluorescence, resorufin region 547/598 nm, buffer; hits give high values; 0.04% of 59,000 active; active = above 10 nM dye equivalent; inconclusive = 1 to 10 nM; inactive = 1 nM or less; a few of its hits are not listed in these tables; also: highest value over a series up to 38 µM
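Dye-equivalent concentration values derive from comparing each well's 547/598 nm fluorescence against resorufin standards included on every plate. Incubation was 15 min at room temperature in 100 mM Tris, pH 8.0.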
A647 autofl: qHTS Assay for Spectroscopic Profiling in A647 Spectral Region. Compound fluorescence, A647 channel (570/671 nm), Tris buffer. max dye-equivalent concentration, M. 59,000 tested, under 10 active. AID 592, 2007; active means above 1 µM dye equivalent; inconclusive means 0.1 to 1 µM; inactive means 0.1 µM or less;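 also: values scaled relative to a standard on each plate; highest value over a series up to 38 µM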
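Spectral profiling of library compounds in pH 8.0 Tris: 15 min room-temperature incubation, single ex/em pair (570/671 nm), response normalized to Alexa 647 equivalents.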
An asterisk follows results filed as active; i = inactive; ? = inconclusive; nt = not tested or not shown; & = joins results of further samples; [ ] = another dose, or the depositor's remark. An excerpt (hit frequency here may not be typical).

no.	molecule	A488 fluor	TSHR agonist	AID923	Resorufin autofl	A647 autofl
1	COC(=O)C1C(=O)C2=C(CC1C)NC(C)=C(C(=O)OCc1ccc(OC)cc1)C2c1ccc(C)o1 (centres undefined)	i	nt	7.7%	i	6.4e-09
2	COc1ccc(OCc2nnc3n2N=C(c2ccc(OC)cc2)CS3)cc1	nt	?	-1.6%	nt	nt
3	CCc1nc2c(sc3nc(N4CCOCC4)c4c(c32)CC(C)(C)OC4)c(=O)o1	i	nt	nt	i	2.6e-08
4	COC(=O)[C@@H]1[C@@H]2C[C@H]3c4[nH]c5cc(OC)ccc5c4CCN3C[C@@H]2C[C@H](OC(=O)c2cc(OC)c(OC)c(OC)c2)[C@H]1OC	i	-41%[inhibitor][25.6 µM]	6.9%[25.7 µM]	i	4.9e-09
5	Cc1c(C)c2ccc(OCC(=O)N(C)C)c(C)c2oc1=O	i	-2%	-1.9%	i	6.2e-09
6	CCOC(=O)C1CCN(c2c(NC3CCCCCCC3)c(=O)c2=O)CC1	nt	?	2.8%	nt	nt
7	C=CCc1cc(C(=O)N2CCCCC2)ccc1O	i	7%	1.2%	i	1e-09
8	COc1ccc(OCc2nnc(SCC(N)=O)n2-c2ccccc2OC)cc1	i	3%	2.0%	i	2.9e-08
9	CCOC(=O)N1CCN(C(=O)c2sc3nc(-c4ccc(F)cc4)cn3c2C)CC1	i	5%	1.9%	i	1e-09
10	COc1ccc(-c2nc(C#N)c(NCC3CCCO3)o2)cc1OC (centres undefined)	i	14%	1.2%	i	7.2e-09
11	COc1cc(-c2nnc(SCC(=O)c3ccc(C)cc3)o2)cc(OC)c1OC	i	?	1.6%	i	4.4e-09
12	COc1cccc(C2CC(c3ccccc3Cl)n3nc(N)nc3N2)c1 (centres undefined)	i	nt	nt	i	5.1e-08
13	CCC(NC(=O)Nc1nccs1)(C(F)(F)F)C(F)(F)F	i	nt	nt	i	3.6e-09
14	CC(=O)OCC1OC(C#CC(C)(C)C)C=CC1OC(C)=O (centres undefined)	nt	?	1.8%&3.5%[11.5 µM]	nt	nt
15	CC(=O)c1ccc(OCC(O)CN2CCN(CCO)CC2)cc1 (centres undefined)	nt	-2%	-0.2%	nt	nt
16	CC(C)CCNC(=O)NC(=O)COc1ncnc2sccc12	i	?	2.6%	i	3.9e-08
17	CN(C)C(=O)C1(c2ccccc2)CCN(S(=O)(=O)c2ccccc2)CC1	i	?	-0.8%	i	6.8e-09
18	CN(C/C=C\c1ccccc1)Cc1cccc2ccccc12	i	?	0.1%[25.7 µM]	i	3.5e-09
19	COc1cc(CN2CCC(C(=O)N3CCN(c4ccccc4F)CC3)CC2)ccc1O	i	15%	-1.4%	i	2.1e-08
20	CS(=O)(=O)Nc1cccc(-c2cc(NCc3cccs3)ncn2)c1	i	14%	1.3%	i	1e-08
21	Cc1cccc(N(Cc2ccccc2F)S(C)(=O)=O)c1	i	20%	0.4%	i	1e-09
22	COc1ccc(OC)c(C2CC(=O)C3=C(C2)NC(=O)CC3c2ccc(O)c(OC)c2)c1 (centres undefined)	i	15%	-2.4%	i	4e-08
23	Cn1c(=O)c2c(nc(Oc3ccc4c(c3)OCO4)n2Cc2ccc(F)cc2)n(C)c1=O	i	nt	nt	i	1e-09
24	COc1cccc(-c2nnc(SCC(=O)Nc3ccc(S(N)(=O)=O)cc3)n2C)c1	i	-2%	-0.1%	i	1e-09
25	O=C(c1ccco1)N1CCN=C1SCc1ccc(F)cc1	nt	4%	-2.8%	nt	nt
26	COC(=O)C(CC(C)C)NC(=O)c1ccc(F)cc1 (centres undefined)	nt	0%[11.4 µM]	-2.6%	nt	nt
27	COc1ccc(NC2=Nc3ccccc3CC2)cc1	i	11%	0.4%	i	2e-09
28	O=C(C1CCN(S(=O)(=O)c2cccc3cccnc23)CC1)N1CCN(Cc2ccccc2)CC1	nt	4%	1.2%	nt	nt
29	CCCCNC(=O)NS(=O)(=O)c1ccc(C(=O)OC)o1	i	-12%	-1.5%	i	4.5e-09
30	CC(C)(C)N1C(=O)[C@H]2[C@@H]3[C@H](O)C=CC(=O)[C@H]3CC[C@H]2C1=O	nt	-3%[11.4 µM]	-1.4%[11.5 µM]	nt	nt
31	CN(C)S(=O)(=O)Nc1ccc2c(c1)Cc1ccccc1-2	nt	-8%	-3.4%	nt	nt
32	COCCCN1C(=O)c2[nH]nc(-c3ccccc3O)c2C1c1ccc(Cl)cc1 (centres undefined)	i	18%	0.9%	i	6.2e-09
33	CCOCCCNC(=O)C(c1ccc(Cl)cc1)N1CCN(c2ccccc2)CC1 (centres undefined)	nt	?	-2.4%	nt	nt
34	CC(C)Oc1ccc(/C(O)=C2/C(=O)C(=O)N(CCCN3CCOCC3)C2c2ccncc2)cc1 (centres undefined)	nt	-8%	-0.5%	nt	nt
35	NC(=O)CSc1nnc(CNc2cccc(Cl)c2)n1CCc1ccccc1	i	24%	-1.9%	i	1.1e-08
36	CCCCNc1nc(C)nc2c1nc(-c1ccccc1)n2CCN1CCCCC1	nt	?	-1.0%	nt	nt

Exported in transposed form: part of the list above
[19] COc1cc(CN2CCC(C(=O)N3CCN(c4ccccc4F)CC3)CC2)ccc1O
[20] CS(=O)(=O)Nc1cccc(-c2cc(NCc3cccs3)ncn2)c1
[21] Cc1cccc(N(Cc2ccccc2F)S(C)(=O)=O)c1
[22] COc1ccc(OC)c(C2CC(=O)C3=C(C2)NC(=O)CC3c2ccc(O)c(OC)c2)c1 (centres undefined)
assay / entry	19	20	21	22
A488 fluor	i	i	i	i
TSHR agonist	15%	14%	20%	15%
AID923	-1.4%	1.3%	0.4%	-2.4%
Resorufin autofl	i	i	i	i
A647 autofl	2.1e-08	1e-08	1e-09	4e-08

Later entries
no.	molecule	A488 fluor	TSHR agonist	AID923	Resorufin autofl	A647 autofl
37	Cc1ccccc1-n1nc(C)c2cc(C(=O)N3CCN(S(=O)(=O)c4ccccc4)CC3)sc21	i	-1%	0.3%	i	2.5e-08
38	COc1ccccc1S(=O)(=O)Cc1ccc(C(=O)N2CCCC2)o1	nt	0%	2.3%	nt	nt
39	CCC(=O)c1ccc(N2CCN(C(=O)c3ccc(Br)cc3)CC2)c(F)c1	i	nt	-4.4%	i	8.5e-09
40	O=C(Cn1cnc2c(nnn2-c2ccc(F)cc2)c1=O)NCc1ccco1	i	-4%	-0.6%	i	1e-09
41	COc1ccc(OCC(=O)Nc2ccc(N3CCOCC3)c(Cl)c2)cc1	i	13%	-1.8%	i	2.3e-09
42	Cc1ccc(NC(=O)Nc2ccc(F)cc2)nc1	i	-4%	-0.3%	i	1.8e-08
43	O=C(O)CSCCc1ccccn1	nt	-11%	-1.0%	nt	nt
44	O=C(Nc1ccc2c(c1)nc1n2CCOC1)c1ccco1	i	-19%	0.7%	i	1.8e-08
45	O=C(COC(=O)c1c2c(nc3ccccc13)CCCC2)Nc1ccc2c(c1)OCO2	i	?	0.5%	i	1.4e-08
46	COc1ccc(-c2cc(C(F)(F)F)nc(N3CCN(c4ccccc4)CC3)n2)cc1OC	i	9%	2.8%	i	2.8e-08
47	CC(c1cccnc1)N(C(=O)Nc1ccccc1)C1CCCCC1 (centres undefined)	nt	5%	2.6%	nt	nt
48	CCOC(=O)c1ccc(NC(=O)Oc2ccccc2)cc1	nt	5%[11.4 µM]	-1.5%	nt	nt

Profiles as entered above.
Listed for CCC(=O)c1ccc(N2CCN(C(=O)c3ccc(Br)cc3)CC2)c(F)c1 → A488 fluor = i; TSHR agonist = nt; AID923 = -4.4%; Resorufin autofl = i; A647 autofl = 8.5e-09
Listed for CC(c1cccnc1)N(C(=O)Nc1ccccc1)C1CCCCC1 (centres undefined) → A488 fluor = nt; TSHR agonist = 5%; AID923 = 2.6%; Resorufin autofl = nt; A647 autofl = nt

The listing picks up, repeating the 2 entries before the break.
no.	molecule	A488 fluor	TSHR agonist	AID923	Resorufin autofl	A647 autofl
47	CC(c1cccnc1)N(C(=O)Nc1ccccc1)C1CCCCC1 (centres undefined)	nt	5%	2.6%	nt	nt
48	CCOC(=O)c1ccc(NC(=O)Oc2ccccc2)cc1	nt	5%[11.4 µM]	-1.5%	nt	nt
49	COc1ccc2[nH]c(=O)c(C(c3nnnn3C3CCCC3)N(C)C3CCCCC3)cc2c1 (centres undefined)	i	?	2.8%	i	1.8e-09
50	CCN(CC)c1nc(Nc2ccc(Cl)cc2)nc(OCC#N)n1	i	-2%	-1.3%	i	1e-09
51	CCOC(=O)C(C)Sc1nnc2n1C(C)(C)Cc1ccccc1-2 (centres undefined)	i	11%	-0.1%	i	5.8e-09
52	CC(=NCCN1CCNCC1)C1=C(O)CC(C)(C)CC1=O	nt	4%	1.2%	nt	nt
53	COc1cc(Cl)c(C)cc1NC(=O)COc1cc(C)nc(C(C)C)n1	i	0%	-0.4%	i	1e-09
54	N#CCSc1nc2ccccc2c(=O)n1CCC(=O)NCCc1ccccc1	i	1%	-1.1%	i	3.5e-08
55	COc1cc(NC(=O)c2cc3nc(C)cc(C)n3n2)c(OC)cc1Cl	i	11%	1.4%	i	2.7e-08
56	O=C(NCCc1ccccc1)c1cnn2c(C(F)F)cc(C3CC3)nc12	i	?	-3.0%	i	2.9e-08
57	CCOc1ccc(N(CC(=O)NC2CCCC2)S(=O)(=O)c2c(C)noc2C)cc1	nt	?	1.1%	nt	nt
58	Cn1c(Cn2c(=O)sc3ccccc32)nnc1SCC(=O)NCc1ccc(F)cc1	nt	11%	-3.3%	nt	nt
59	O=C(Cc1c(F)cccc1Cl)N1CCN(C(=O)c2ccco2)CC1	i	-1%	2.1%	i	7.2e-09
60	C=CCc1ccccc1OCCCCN1CCCC1	nt	17%	2.2%	nt	nt
61	Cc1ccc(C(C)C)c(OCc2ccc(-c3nnco3)cc2)c1	i	14%	0.8%	i	1e-09
62	C=CCn1c(N)c(C(=O)OC(C)(C)C)c2nc3ccccc3nc21	i	nt	nt	i	1e-09
